Ecoli rRNA inh – selective bacterial rRNA inhibition in E. coli; AID 720706; E. coli WT GFP vs humanized-ribosome RFP mutants, fluorescence, 24 h; hits give low values; DMSO median 0, no signal -100; GFP signal change (wild-type ribosome), % (test concentration not listed); 350,000 compounds, 1.6% hits;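 active = significant combined selectivity score with lowered wild-type GFP, culture density cut under 30%, mutant RFP and density less affected; inactive = any of these conditions unmet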; note: one replicate is shown; some compounds called inactive have numbers as strong as hits
E coli growth – blocks Escherichia coli growth. OD600, 23 h; hits give low values. OD600 absorbance (test concentration not listed). 330,000 compounds, 0.21% hits. AID 1053175;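 active = OD600 absorbance below the run mean of sample wells minus 3.6 SD, in any replicate, cut at about 0.56 in these data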;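 note: stock transfer was 300 nL into about 60 µL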
ALR H2O2 inh – blocks human ALR sulfhydryl oxidase activity; purified ALR, DTT oxidation, H2O2 HRP-luminol luminescence; inhibition, % (test concentration not listed); 290,000 compounds, 3.8% hits; AID 485317;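 active = mean and each replicate at 75% or more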;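 note: stock transfer was 7.5 nL into about 7.5 µL; 0% = neutral wells and 100% = wells with inactivated enzyme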
Target sequence (P55789 whole entry, looked up): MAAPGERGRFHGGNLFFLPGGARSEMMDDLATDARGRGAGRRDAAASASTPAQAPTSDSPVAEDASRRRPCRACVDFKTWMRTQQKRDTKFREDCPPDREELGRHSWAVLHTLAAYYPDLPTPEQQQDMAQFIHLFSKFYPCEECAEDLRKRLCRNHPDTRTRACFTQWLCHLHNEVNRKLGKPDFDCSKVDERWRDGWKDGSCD
HNF4A DNA FP – change in binding of human HNF4 alpha to DNA | P41235 | HNF4a-FITC DNA binding, fluorescence polarization, 1 h | activity change, % at 10 µM | 360,000 compounds, 0.3% hits | AID 1224865; in the data active = activity change above about 30%, passing the limit was not always enough;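 note: controls were the assay level and a saturating level of protein; the project sought stronger binding though the title names inhibitors; some compounds called inactive have numbers as strong as hits; positive values seem to mean higher polarization but the record does not say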
Beta2AR agonist – activates human beta-2 adrenergic receptor causing internalization | P07550 | Am2.2-beta2AR cells, FAP receptor internalization, flow cytometry; reference of the scale not given here | response, % (test concentration not listed) | 340,000 compounds, 0.43% hits | AID 504454;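 active = response above a set limit, near 3 SD of response in nonfluorescent compounds, cut at about 42% in these data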;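 note: stock transfer was 100 nL into about 11 µL; a reference agonist was the positive control; negative values mostly stem from fluorescent compounds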
FGF22 binding – FGF22 (human) thermal shift binding; recombinant FGF22 thermal shift, SYPRO orange fluorescence; percent of sucrose octasulfate shift, DMSO zero; calls only at 9.99 µM; 340,000 compounds, 1.5% hits; AID 651658; Q9HCT0;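 active = melting point raised past a set limit in the mean and every replicate; three in four hits are not shown here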
Target sequence (Q9HCT0 whole entry, looked up): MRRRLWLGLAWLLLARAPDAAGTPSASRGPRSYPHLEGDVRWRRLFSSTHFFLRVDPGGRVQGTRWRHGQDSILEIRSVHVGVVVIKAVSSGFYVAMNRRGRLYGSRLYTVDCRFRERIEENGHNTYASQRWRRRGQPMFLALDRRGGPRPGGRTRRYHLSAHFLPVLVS
UCH37 inh – human UCH37 deubiquitinating enzyme inhibition | Q9Y5K5 | purified proteasome/UCH37, Ub-AMC cleavage fluorescence | inhibition, % (no concentration beside the values) | 330,000 compounds, 0.33% hits;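 active = mean of two replicates above 20%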;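 note: 0% = compound-free wells with enzyme and 100% = wells lacking proteasome; stock transfer was 100 nL into about 20 µL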
Target sequence (Q9Y5K5 whole entry, looked up): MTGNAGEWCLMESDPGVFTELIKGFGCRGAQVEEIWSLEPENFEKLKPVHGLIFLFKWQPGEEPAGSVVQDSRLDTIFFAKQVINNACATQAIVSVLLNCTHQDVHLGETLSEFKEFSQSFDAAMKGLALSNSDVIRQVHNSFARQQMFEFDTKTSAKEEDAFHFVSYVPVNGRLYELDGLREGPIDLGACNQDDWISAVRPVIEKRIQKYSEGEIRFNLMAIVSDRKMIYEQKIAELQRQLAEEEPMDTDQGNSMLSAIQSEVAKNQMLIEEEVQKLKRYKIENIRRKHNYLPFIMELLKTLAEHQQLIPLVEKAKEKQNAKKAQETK
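system = Proteasome-associated human UCH37 deubiquitinase | amount = 0.15 nM proteasome as dispensed | medium = pH 7.4 Tris-HCl (50 mM) with ovalbumin, ATP-MgCl2, DTT | incubation = 30 min preincubation with enzyme, 25 min cleavage at room temperature | detection = AMC fluorescence 355/460 nm | read-out basis = percent inhibition | controls = no-proteasome and no-compound wells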
Ecoli rRNA inh OD600 – recorded beside Ecoli rRNA inh, whose call it bears; OD600 change, %; measured here: OD600 growth;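 optical density of the mix in the first replicate; 0 = DMSO median and -100 = no signal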
Ecoli rRNA inh RFP – recorded beside Ecoli rRNA inh, whose call it bears; RFP signal change, %; measured here: RFP humanized mutant strains;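 first replicate; 0 = DMSO median and -100 = no signal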
Numbers without * were called inactive.

COC(=O)NC1c2ccccc2Oc2ccccc21 was read as Ecoli rRNA inh 0, E coli growth 0.65, ALR H2O2 inh 2, HNF4A DNA FP 4.1, Beta2AR agonist -1, FGF22 binding inactive, UCH37 inh 4.5, Ecoli rRNA inh OD600 1 and Ecoli rRNA inh RFP -0.7.
`COc1ccc(C2/C(=C(/O)c3ccc4c(c3)CC(C)O4)C(=O)C(=O)N2CCCn2ccnc2)cc1` (stereo not drawn) gave Ecoli rRNA inh 0, E coli growth 0.66, ALR H2O2 inh 8, HNF4A DNA FP 1.5, Beta2AR agonist -5, FGF22 binding inactive, UCH37 inh 11, Ecoli rRNA inh OD600 15 and Ecoli rRNA inh RFP -2.5.
For O=C(CSc1nnc(-c2ccccc2)o1)NC1CCCC1 the results were Ecoli rRNA inh 0, E coli growth 0.69, ALR H2O2 inh -4, HNF4A DNA FP 0.4, Beta2AR agonist -5, FGF22 binding inactive, UCH37 inh -1.5, Ecoli rRNA inh OD600 1 and Ecoli rRNA inh RFP -1.9.
`CCN1CCN(c2ccc(NC(=O)c3ccc4c(c3)OCCO4)cc2C)CC1` gave Ecoli rRNA inh -3, E coli growth 0.7, HNF4A DNA FP 1.7, Beta2AR agonist 8, FGF22 binding inactive, UCH37 inh 6.5, Ecoli rRNA inh OD600 5 and Ecoli rRNA inh RFP -4.0.
Screening CC(C)CC1(C)NC(=O)N(CC(=O)Nc2ccccc2Br)C1=O (stereo not drawn) returned Ecoli rRNA inh 0, E coli growth 0.65, ALR H2O2 inh 1, HNF4A DNA FP 3.9, Beta2AR agonist 6, FGF22 binding inactive, UCH37 inh 0.7, Ecoli rRNA inh OD600 -8 and Ecoli rRNA inh RFP -6.5.
CNC(=O)c1[nH]cnc1C(=O)N[C@@H](Cc1ccccc1)C(=O)OCc1ccccc1 was read as ALR H2O2 inh 11, HNF4A DNA FP 5.0, Beta2AR agonist 23 and UCH37 inh 0.6.
For COc1ccc(-c2nnn(CC(=O)Nc3sc4c(c3C#N)CCCC4)n2)cc1 the results were E coli growth 0.69, ALR H2O2 inh -7, HNF4A DNA FP -1.8, Beta2AR agonist 1 and UCH37 inh 1.2.
CCn1ncc(Br)c1C(=O)Nc1sc2c(c1C(=O)OC)CCC2 was read as E coli growth 0.67, ALR H2O2 inh -3, HNF4A DNA FP -0.9, Beta2AR agonist -7 and UCH37 inh -185.
c1ccc(-c2nnc3ccc(N4CCCC4)nn23)cc1 was read as Ecoli rRNA inh -6, E coli growth 0.72, ALR H2O2 inh 0, HNF4A DNA FP -0.8, Beta2AR agonist -23, FGF22 binding inactive, UCH37 inh 5.8, Ecoli rRNA inh OD600 -3 and Ecoli rRNA inh RFP 0.1.
Screening CCN1CCCC1CNC(=O)c1ccc2c(c1)NC(=O)/C(=C\c1ccc(C)cc1)S2 (stereo not drawn) returned Ecoli rRNA inh -55, E coli growth 0.67, ALR H2O2 inh -3, HNF4A DNA FP -0.3, Beta2AR agonist 34, FGF22 binding inactive, UCH37 inh 12, Ecoli rRNA inh OD600 -80 and Ecoli rRNA inh RFP -14.
For COC(CNC(=O)CCCn1nnnc1CN1CCOCC1)c1cccs1 (stereo not drawn) the results were Ecoli rRNA inh 9, E coli growth 0.67, HNF4A DNA FP -1.7, Beta2AR agonist 8, FGF22 binding inactive, UCH37 inh 4.7, Ecoli rRNA inh OD600 18 and Ecoli rRNA inh RFP -0.4.
C=CCOc1nc2c(c(=O)n(C)c(=O)n2C)n1Cc1c(Cl)cccc1Cl was read as Ecoli rRNA inh -6, E coli growth 0.77, ALR H2O2 inh -2, HNF4A DNA FP -4.1, Beta2AR agonist 8, UCH37 inh 0.1, Ecoli rRNA inh OD600 -18 and Ecoli rRNA inh RFP -0.1.
Screening CN1CCN(C(=S)c2cn(CCOc3ccccc3)c3ccccc23)CC1 returned Ecoli rRNA inh -20, E coli growth 0.66, ALR H2O2 inh -10, HNF4A DNA FP 3.8, Beta2AR agonist 0, FGF22 binding inactive, UCH37 inh 0.3, Ecoli rRNA inh OD600 -13 and Ecoli rRNA inh RFP -11.
O=C(NCCc1c[nH]c2ccccc12)c1ccc(Cl)cc1 was read as Ecoli rRNA inh -29, E coli growth 0.67, ALR H2O2 inh 1, HNF4A DNA FP 2.4, Beta2AR agonist -3, FGF22 binding active, UCH37 inh 4.7, Ecoli rRNA inh OD600 -24 and Ecoli rRNA inh RFP -2.4.
Screening COc1ccc([N+](=O)[O-])cc1NC(=O)CSc1nccc(C)n1 returned Ecoli rRNA inh 3, E coli growth 0.65, HNF4A DNA FP 1.6, Beta2AR agonist -1, FGF22 binding inactive, UCH37 inh 4.8, Ecoli rRNA inh OD600 -5 and Ecoli rRNA inh RFP 11.
Screening C/C=C/c1ccc(Oc2nnnn2-c2ccc(C(=O)O)cc2)c(OC)c1 returned E coli growth 0.68, ALR H2O2 inh 6, HNF4A DNA FP -0.7, Beta2AR agonist 6 and UCH37 inh 1.6.
`Cc1ccc(C(=O)OCC(=O)NNC(=O)c2cccs2)c(O)c1` gave Ecoli rRNA inh 0, E coli growth 0.61, ALR H2O2 inh 4, HNF4A DNA FP 0.6, Beta2AR agonist 0, FGF22 binding inactive, UCH37 inh 0.3, Ecoli rRNA inh OD600 4 and Ecoli rRNA inh RFP 1.2.
`CC12CN3CCN(CC(C3)C1(O)CN1CCOCC1)C2` (stereo not drawn) gave E coli growth 0.68, HNF4A DNA FP -1.2, Beta2AR agonist 3 and UCH37 inh -0.1.
Screening COC(=O)C[C@@H]1C=C[C@@H](NC(=O)c2ccc3c(c2)OCO3)[C@@H](CO)O1 returned Ecoli rRNA inh 4, HNF4A DNA FP 5.3, FGF22 binding inactive, Ecoli rRNA inh OD600 -1 and Ecoli rRNA inh RFP -2.8.
Oc1ccccc1C1N=C(c2ccccc2)NC(c2ccccc2)=N1 was read as E coli growth 0.74, ALR H2O2 inh 25, HNF4A DNA FP -1.6, Beta2AR agonist -27 and UCH37 inh 3.3.

2 successive records already listed:
Screening COC(=O)C[C@@H]1C=C[C@@H](NC(=O)c2ccc3c(c2)OCO3)[C@@H](CO)O1 returned Ecoli rRNA inh 4, HNF4A DNA FP 5.3, FGF22 binding inactive, Ecoli rRNA inh OD600 -1 and Ecoli rRNA inh RFP -2.8.
Oc1ccccc1C1N=C(c2ccccc2)NC(c2ccccc2)=N1 was read as E coli growth 0.74, ALR H2O2 inh 25, HNF4A DNA FP -1.6, Beta2AR agonist -27 and UCH37 inh 3.3.

Further records.
Screening CC1CN(Cc2ccco2)C(=S)N(c2ccccc2)C1=O (stereo not drawn) returned Ecoli rRNA inh -6, E coli growth 0.67, HNF4A DNA FP 0.1, Beta2AR agonist 4, FGF22 binding inactive, UCH37 inh 2.2, Ecoli rRNA inh OD600 -3 and Ecoli rRNA inh RFP -1.6.
For CCOC(=O)c1ccc(Oc2nc(N(C)C)nc(N(C)C)n2)cc1 the results were E coli growth 0.72, ALR H2O2 inh 3, HNF4A DNA FP 0.1, Beta2AR agonist -15 and UCH37 inh 1.2.
CC1(C)CC(Nc2ccc(Nc3ccccc3)cc2)CC(C)(C)N1 was read as Ecoli rRNA inh -9, ALR H2O2 inh 99*, HNF4A DNA FP 5.0, Beta2AR agonist 6, FGF22 binding inactive, Ecoli rRNA inh OD600 -6 and Ecoli rRNA inh RFP 14.
Cn1c(CN2CCOCC2)nnc1SCC(=O)Nc1cc(Cl)ccc1Cl was read as Ecoli rRNA inh 1, E coli growth 0.62, ALR H2O2 inh 1, HNF4A DNA FP 3.1, Beta2AR agonist -2, FGF22 binding inactive, UCH37 inh 0.7, Ecoli rRNA inh OD600 8 and Ecoli rRNA inh RFP -1.9.
For O=C(NN=CC=Cc1ccccc1)C(O)C(O)C(=O)NN=CC=Cc1ccccc1 (stereo not drawn) the results were Ecoli rRNA inh 8, E coli growth 0.71, HNF4A DNA FP -4.9, Beta2AR agonist 1, FGF22 binding inactive, UCH37 inh 2.9, Ecoli rRNA inh OD600 5 and Ecoli rRNA inh RFP 1.1.
CN(CCCC(=O)Nc1ccc(OC(F)F)cc1)S(=O)(=O)c1ccc(F)cc1 was read as Ecoli rRNA inh -11, E coli growth 0.7, ALR H2O2 inh -10, HNF4A DNA FP 0.0, Beta2AR agonist -4, FGF22 binding inactive, UCH37 inh 1.9, Ecoli rRNA inh OD600 -14 and Ecoli rRNA inh RFP 5.5.
C[C@H]1CN=C(Nc2ccccc2)N1CCC1CCCC1 was read as Ecoli rRNA inh 13, ALR H2O2 inh -2, HNF4A DNA FP 1.7, Beta2AR agonist -2, FGF22 binding inactive, Ecoli rRNA inh OD600 7 and Ecoli rRNA inh RFP -5.6.
Screening CCc1noc(C)c1C(=O)N1CCCC(C(=O)c2cc(F)ccc2OC)C1 (stereo not drawn) returned Ecoli rRNA inh 4, E coli growth 0.69, ALR H2O2 inh 6, HNF4A DNA FP -3.1, Beta2AR agonist -5, FGF22 binding inactive, UCH37 inh -4.4, Ecoli rRNA inh OD600 -4 and Ecoli rRNA inh RFP -5.9.
Screening COCCC1CCCCN1C(=O)c1cc(COc2ccc(-n3cncn3)cc2)on1 (stereo not drawn) returned Ecoli rRNA inh 2, ALR H2O2 inh 3, HNF4A DNA FP -2.9, Beta2AR agonist 5, FGF22 binding inactive, Ecoli rRNA inh OD600 -6 and Ecoli rRNA inh RFP -1.5.
`Cc1ccc(S(=O)(=O)NC(=NC(Cc2ccccc2)C(=O)O)c2ccccc2)cc1` (stereo not drawn) gave Ecoli rRNA inh 9, E coli growth 0.68, ALR H2O2 inh -6, HNF4A DNA FP 0.8, Beta2AR agonist -2, FGF22 binding inactive, UCH37 inh 4.3, Ecoli rRNA inh OD600 9 and Ecoli rRNA inh RFP 0.7.
For COc1ccc(C2=NS(=O)(=O)N(C)C(C(=O)NCc3ccccn3)=C2)cc1OC the results were Ecoli rRNA inh -2, E coli growth 0.67, ALR H2O2 inh -14, HNF4A DNA FP 5.1, Beta2AR agonist -7, FGF22 binding inactive, UCH37 inh 11, Ecoli rRNA inh OD600 4 and Ecoli rRNA inh RFP -2.2.
`O=C(OCN1C(=O)C(=O)c2ccccc21)c1ccc(Cl)cc1` gave Ecoli rRNA inh 1, E coli growth 0.68, ALR H2O2 inh -1, HNF4A DNA FP -2.2, Beta2AR agonist -2, FGF22 binding inactive, UCH37 inh 5.2, Ecoli rRNA inh OD600 15 and Ecoli rRNA inh RFP -3.7.
O=C(COc1ccccc1)Nc1nc2cc3c(cc2s1)OCO3 was read as Ecoli rRNA inh 9, E coli growth 0.75, ALR H2O2 inh -21, HNF4A DNA FP 0.3, Beta2AR agonist 1, FGF22 binding inactive, UCH37 inh 0.5, Ecoli rRNA inh OD600 14 and Ecoli rRNA inh RFP -1.2.
COCCN=c1scc(-c2ccco2)n1/N=C/c1ccc(O)c(O)c1O was read as Ecoli rRNA inh 16, ALR H2O2 inh 99*, HNF4A DNA FP -45, Beta2AR agonist 10, FGF22 binding inactive, Ecoli rRNA inh OD600 -19 and Ecoli rRNA inh RFP 22.
CC(C)(CNS(=O)(=O)c1cccs1)N1CCOCC1 was read as Ecoli rRNA inh 4, E coli growth 0.64, ALR H2O2 inh 0, HNF4A DNA FP 4.7, Beta2AR agonist -4, FGF22 binding inactive, UCH37 inh 3.0, Ecoli rRNA inh OD600 4 and Ecoli rRNA inh RFP 1.2.
Screening CC(C)NC(=O)c1cnc(N2CCN(c3ccccn3)CC2)c2ccccc12 returned E coli growth 0.72, ALR H2O2 inh -10, HNF4A DNA FP 0.1, Beta2AR agonist 0 and UCH37 inh 1.9.

Screening results as filed in PubChem.

The list is partial, so the mix of outcomes need not match the whole.
